KCNQ2 pot – KCNQ2 (rat) channel potentiation. O88943. CHO-K1 KCNQ2, FluxOR thallium flux fluorescence; active compounds read high. B-score at 10 µM. actives 0.54% (n = 310,000). AID 2239;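 active = fluorescence ratio B-score at least 3 SD of library B-scores, with initial fluorescence B-score within 3 SD, cut at about 5.3 in these data; same plate scores as AID 2156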;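 note: B-score of peak minus minimum over baseline fluorescence ratio after K+ and Tl+ stimulus; positive B-score means potentiation of KCNQ2 with more thallium influx and brighter signal; only the inactives scoring about 0 or higher are listed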
Target sequence (O88943 whole entry, looked up): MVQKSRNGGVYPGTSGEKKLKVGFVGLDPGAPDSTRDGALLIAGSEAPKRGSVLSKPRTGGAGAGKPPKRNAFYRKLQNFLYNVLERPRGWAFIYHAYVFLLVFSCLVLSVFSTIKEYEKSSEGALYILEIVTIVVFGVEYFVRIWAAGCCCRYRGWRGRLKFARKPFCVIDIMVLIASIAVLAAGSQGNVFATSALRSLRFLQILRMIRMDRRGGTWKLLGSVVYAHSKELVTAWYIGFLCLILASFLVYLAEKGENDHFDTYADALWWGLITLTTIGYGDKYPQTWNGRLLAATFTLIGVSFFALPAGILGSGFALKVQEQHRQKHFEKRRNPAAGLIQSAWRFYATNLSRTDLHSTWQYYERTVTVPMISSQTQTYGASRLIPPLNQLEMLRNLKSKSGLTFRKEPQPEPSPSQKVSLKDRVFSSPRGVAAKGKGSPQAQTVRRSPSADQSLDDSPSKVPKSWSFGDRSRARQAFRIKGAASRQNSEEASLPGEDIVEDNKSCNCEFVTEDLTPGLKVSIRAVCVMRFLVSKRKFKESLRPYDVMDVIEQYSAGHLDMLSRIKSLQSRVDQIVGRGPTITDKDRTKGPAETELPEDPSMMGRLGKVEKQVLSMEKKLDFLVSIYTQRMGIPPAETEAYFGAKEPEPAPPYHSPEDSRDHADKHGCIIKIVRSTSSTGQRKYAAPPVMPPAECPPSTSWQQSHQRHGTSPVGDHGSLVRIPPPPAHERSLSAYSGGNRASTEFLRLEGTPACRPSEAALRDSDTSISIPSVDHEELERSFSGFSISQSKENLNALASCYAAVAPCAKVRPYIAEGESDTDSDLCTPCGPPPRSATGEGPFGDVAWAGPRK
KCNQ2 pot baseline – second read-out of KCNQ2 pot, no call of its own (marks repeat the call); B-score; compound at 10 µM; measured here: initial fluorescence intensity artifact check;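 brightness before thallium and not channel activity; 0 = typical well and far values either way flag optical interference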
The depositor's hits bear a star. An excerpt; the hit share may differ from the screen's.

SMILES	KCNQ2 pot	KCNQ2 pot baseline
CCn1ncc([N+](=O)[O-])c1C(=O)Nc1ccc(C(=O)N2CCCCC2)cc1	0.97	0.64
CCCCCCCC(=O)NNC(=O)c1c(O)c2ccccc2n(CC)c1=O	1.5	1.9
COc1ccc(C(=O)Nc2ccc(N3CCC(C)CC3)cc2)cc1Br	0.51	-0.47
CC(C)NC(=O)CCCn1c(=S)[nH]c2cc3c(cc2c1=O)OCO3	0.01	0.24
O=c1cc(N2CCCCC2)c(-c2ccccc2)nn1Cc1ccc(Cl)cc1	0.7	-0.88
CCOC(=O)C1CCN(C(=O)COc2ccc(S(=O)(=O)N3CCOCC3)cc2)CC1	0.57	0.37
Cc1nn(-c2ccc(Cl)cc2)c2sc(C(=O)N3CCN(c4ccccn4)CC3)cc12	1.5	0.18
C#C[C@]1(O)CC[C@H]2[C@@H]3CCC4=C(CCC(=O)C4)[C@H]3CC[C@@]21C	0.25	0.04
O=C(OCCC1Oc2cccnc2NC1=O)c1ccc([N+](=O)[O-])cc1 (centres undefined)	0.59	0.17
CC(=O)c1cccc(N(C(=O)CNC(=O)c2ccco2)C(C(=O)NC2CCCC2)c2ccncc2)c1 (centres undefined)	0.1	-0.31
C=CCc1cccc(/C=N/NC(=O)CCCNc2ccc(C)cc2)c1O	0.04	-0.16
COc1ccc(OC)c(NC(=O)CC2SC(=N)N(c3ccccc3)C2=O)c1 (centres undefined)	0.26	1.4
O=C(OC1CCOC1=O)c1ccc(Cl)c(S(=O)(=O)N2CCCCC2)c1 (centres undefined)	0.41	1.1
O=C(Nc1ccccc1SCC1CSc2nc3ccccc3c(=O)n21)c1cccc(Cl)c1 (centres undefined)	1.4	-1.4
Cn1c(=O)cc(OCCCC(=O)NCc2ccc(F)cc2Cl)c2ccccc21	0.14	0.02
CCn1c(SCC(=O)N2CCN(S(=O)(=O)c3ccccc3)CC2)nnc1-c1cccs1	0.19	0.06
Cc1cc(C)n(-c2ccc(S(=O)(=O)N3CCCC3)cc2[N+](=O)[O-])n1	0.44	0.89
O=C(NC(=S)NCc1ccccc1)c1ccccc1[N+](=O)[O-]	1.1	-0.86
CC1Cc2ccccc2N1C(=O)CCS(=O)(=O)c1ccc2c(c1)NC(=O)CS2 (centres undefined)	1.5	-0.02
COc1ccc(CN2CCCC(C(=O)N3CCCCC3)C2)cc1OC (centres undefined)	0.71	0.49
O=C(/C=C/c1ccccc1)Nc1ccc2c(c1)C(=O)NC2=O	0.57	-1.6
O=C(OC(C(=O)NC1CCCC1)c1ccccc1F)c1ccco1 (centres undefined)	0.01	-1.9
CN(C)C(N)=NCCC[C@H](N)C(=O)O	1	-0.1
CCN(C(=O)Nc1ccccc1)c1ccccc1	0.12	0.51
CC(C)(C)c1ccc(C(=O)N2CCCN(C(=O)c3ccc(C(C)(C)C)cc3)CC2)cc1	0.32	0.02
COc1ccc2c(c1OC)C(=O)OC2Nc1ccccn1 (centres undefined)	0.1	0.88
Cc1cc(NC(=O)CCCOc2ccc(Cl)cc2Cl)no1	0.81	-2
O=C(O)/C(=C/c1ccco1)NC(=O)c1ccccc1	1.9	0.75
O=C(Nc1ccccc1Cl)N1CCN(c2ccc3nncn3n2)CC1	1	0.62
Cc1cc(C)nc(Sc2ncnc3sc4c(c23)CCC4)n1	1.8	-1.1
Cc1cccc(C)c1OCC(=O)Nc1nnc(C2CCCO2)s1 (centres undefined)	0.7	-2.4
COc1ccc(C(=O)CSc2nnc3n2CCCN3C(=O)Nc2ccccc2)cc1	0.02	2.4
Cc1c(N(C)C(=O)C23CC4CC(CC(C4)C2)C3)c(=O)n(-c2ccccc2)n1C	0.57	-0.16
O=S(=O)(c1ccc2nc(COc3ccc(Cl)cc3Cl)[nH]c2c1)N1CCOCC1	0.69	0.53
C#CCCOC(=O)N1C2=NC(C(=O)OC)=C(C(=O)OC)[C@@H]3N(CC=C)c4ccccc4[C@]23C[C@H]1C(=O)OC	0.04	1.3
O=c1[nH]c2ccccc2[nH]c1=O	1.2	0.39
CCOc1ccc(S(=O)(=O)Nc2cccc(C(=O)NCC(c3ccccc3)N(C)C)c2)cc1 (centres undefined)	0.01	-0.18
Cc1cc(C)c(-n2c(SCC(=O)N3CCOCC3)n[nH]c2=O)c(C)c1	1.1	-1.1
CCCNC(=O)C1Cc2cc(S(=O)(=O)N3CCCC3)ccc2N1C(C)=O (centres undefined)	0.92	-0.71
Cc1ccn2cc(-c3cccc(S(=O)(=O)N4CC(C)OC(C)C4)c3)nc2c1 (centres undefined)	0.66	0.94
COC(=O)c1sc(NC(=O)COc2ccccc2C)nc1C	0.11	-0.76
O=[N+]([O-])c1cccnc1N1CCC(c2cc(-c3ccc(Cl)cc3Cl)n[nH]2)CC1	0.67	0.2
O=c1c(-c2ccccc2)c(O)nc(SCCN2CCOCC2)n1-c1ccccc1	3	0.53
O=C(O)CCCCCCCCc1cn(Cc2ccc(C(=O)c3ccccc3)cc2)nn1	1.1	-0.36
O=C(Nc1cccc(Cl)c1Cl)C1CC(=O)N(c2ccc(Br)cc2)C1 (centres undefined)	0.29	-1.8
NNC(=O)c1nc[nH]c1C(=O)Nc1ccccc1[N+](=O)[O-]	0.98	-0.03
CCOc1ccc(N(C(=O)c2snc(C(N)=O)c2N)C(C(=O)NC2CCCC2)C(C)C)cc1 (centres undefined)	1.2	-0.75
COCCNC(=O)c1cn(C)c2ccccc2c1=O	0.35	-1
O=C(O)c1ccc(Nc2ccc(Cl)c(Cl)c2)c([N+](=O)[O-])c1	1.9	-0.93
CNC(=O)c1ccccc1-c1cn(C)c2ccccc2c1=O	2	1.1
CC(C)(C)[C@H]1C=C(C(=O)NC2CC2)O[C@@H](OCCCCO)C1	1.8	-0.64
CC(C)(C)N/C=C(\C#N)S(=O)(=O)c1ccc(Br)cc1	0.37	0.25
CC(C)=C1C2C=CC1C(C(=O)Nc1cccc(C)c1)C2C(=O)O (centres undefined)	1.2	-2.4
O=C(C(=O)N1CCN(c2cccc(Cl)c2)CC1)c1c[nH]c2ccccc12	0.59	-2.3
Cc1ccccc1-c1nc(CN2CCC(C(=O)O)CC2)c(C)o1	0.01	0.01
COc1cc(-c2nnc(COC(=O)c3nn(CC(C)C)c(=O)c4ccccc34)o2)cc(OC)c1OC	1.2	-1.9
COc1ccccc1C(=O)NC(=O)COC(=O)c1cc[n+]([O-])cc1	1.2	-3
CC(C)c1nc(SCC(=O)Nc2cccc(C(=O)O)c2)c2c3c(sc2n1)CCCC3	2	-0.07
Cc1ccc(C)c(N(CC(=O)N2CCCC2)S(C)(=O)=O)c1	0.16	0.87
Nc1ccc(Br)cc1-c1nc2ccccc2[nH]c1=O	0.13	-0.67

Given in CSV form: entries from further up
smiles,KCNQ2 pot,KCNQ2 pot baseline
CNC(=O)c1ccccc1-c1cn(C)c2ccccc2c1=O,2,1.1
Cc1ccc(C)c(N(CC(=O)N2CCCC2)S(C)(=O)=O)c1,0.16,0.87

(more compounds)
SMILES	KCNQ2 pot	KCNQ2 pot baseline
O=C(Nc1ccc(F)cc1)C1CCCN1S(=O)(=O)c1ccc(Br)cc1 (centres undefined)	0.26	-2.3
CC(=O)Nc1ccc(S(=O)(=O)N2CCC(NC(=O)C(Cc3ccccc3F)NC(C)=O)CC2)cc1 (centres undefined)	0.02	-3.1
O=C1CCCc2c1cc(C(=O)NC1CCSC1=O)c(=O)n2-c1ccccc1 (centres undefined)	1.2	-3.5
CC(=O)c1sc(N/N=C/c2ccc(C(C)C)cc2)nc1C	0.17	0.92
O=C(c1ccc(S(=O)(=O)N2CCCCCC2)cc1)N1CCN(c2ccccc2)CC1	0.4	0.9
COc1ccc(OC)c(CCNC(=O)c2sc3nc4n(c(=O)c3c2C)CCC4)c1	0.09	-0.71
O=C(CN1C(=O)NC2(CCCC2)C1=O)Nc1nc2ccc(F)cc2s1	0.27	-0.31
O=C(CN1CCN(S(=O)(=O)/C=C/c2ccccc2)CC1)NC(=O)NCc1ccco1	0.18	-0.07
COc1cc2c(cc1C1C(C#N)=C(N)OC3=C1C(=O)CC(C)(C)C3)OCO2 (centres undefined)	0.1	-0.39
CC(=O)Nc1cc(-c2ccccc2)ccc1O	1.6	-0.55
COC(=O)c1sc(-c2ccccc2)cc1NC(=O)c1ccc(F)cc1	0.44	0.49
CCOc1ccccc1CN1CCN(Cc2csc(C(C)=O)c2)CC1CCO (centres undefined)	2.3	-0.01
Cc1nnc(NC(=O)C(C)Sc2nnc(CCNC(=O)c3ccccc3F)n2C)s1 (centres undefined)	0.54	-3
COc1ccc(-c2c(C)sc(NC(=O)c3ccnn3C)c2C#N)cc1	0.88	-1.2
C=CCOc1ccc(C(=O)NC2CCCCC2)cc1	0.24	0.6
Cc1cc(=O)oc(C)c1C(=O)Nc1cnc2ccccc2c1	0.02	1.9
O=C1NC(=O)C2(COC(c3ccccc3Cl)OC2)S1 (centres undefined)	0.99	1.4
CC1=C(C(=O)OCc2ccccc2)C(c2ccc([N+](=O)[O-])cc2)NC(=O)N1CCCCCC(=O)O (centres undefined)	0.13	1.7
COc1ccc(S(=O)(=O)N(C)CC(=O)N2CCCCCC2)cc1	2.6	-0.87
COC(=O)C(C)Sc1nnc2n(-c3cccc(C)c3)c(=O)c3c4c(sc3n12)CCCC4 (centres undefined)	0.08	0.74

One compound at a time, as listed above. Order of screens: KCNQ2 pot	KCNQ2 pot baseline
`CC(=O)c1sc(N/N=C/c2ccc(C(C)C)cc2)nc1C` in the list: 0.17	0.92
`C=CCOc1ccc(C(=O)NC2CCCCC2)cc1` in the list: 0.24	0.6

Remaining list, next part:
SMILES	KCNQ2 pot	KCNQ2 pot baseline
Cn1nnnc1SCC1=C(C(=O)O)N2C(=O)[C@@H](NC(=O)[C@H](O)c3ccccc3)[C@H]2SC1	0.53	-0.74
COC(=O)c1ccccc1NC(=O)NCc1ccccc1	0.75	-0.03
O=C(Cc1c(F)cccc1Cl)Nc1cccc(S(=O)(=O)NC2=NCCCCC2)c1	0.51	0.47
NC(=O)CSc1nnc(-c2ccc(S(=O)(=O)N3CCCCC3)cc2)n1-c1ccccc1	1.3	1.4
Cc1nn(-c2ccccc2)c(Cl)c1/C=N/NC(=O)c1ccn[nH]1	0.93	0.85
CCN(CC)C(=O)c1ccccc1NS(=O)(=O)c1ccc(OC)c(C(=O)N2CCOCC2)c1	0.37	-0.31
CCOC(=O)CC1C(=O)NCCN1C(=O)c1cccc(C(F)(F)F)c1 (centres undefined)	1.4	-0.03
Cc1cc(N2CCN(CC(O)C(F)(F)F)CC2)c2ccccc2n1 (centres undefined)	0.03	-2.5
COc1cccc2cc(C(=O)NCC3CCCO3)c(=O)oc12 (centres undefined)	0.57	-0.08
CC(C)(C)C(=O)Nc1cccc(-c2nnc(-c3cccc(NC(=O)C(C)(C)C)c3)o2)c1	0.16	0.03
CC(C)c1ccc(/C=C/C(=O)NCc2ccc(S(N)(=O)=O)cc2)cc1	0.28	0.08
CC(C)C[C@@H](CC#N)N1CCN(Cc2ccccc2)CCC1=O	0.67	-0.04
Cn1nc(C(=O)N2CCCC2)c2ccccc2c1=O	0.93	0.96
COc1cccc(/C=N/NC(=O)NC2CCCCC2)c1O	0.66	1.3
CCn1c(COc2ccccc2C)nnc1SCC(=O)Nc1cc(C)on1	0.33	-0.39
CC(=O)Nc1ccc(S(=O)(=O)Nc2nc3cc4c(cc3nc2Cl)OCCO4)cc1	0.6	-0.09
CCCc1cc(C(=O)Nc2ccc(C(=O)c3ccc(F)cc3)cc2)n(C)n1	0.4	-0.04
Fc1cccc(/C=N/Nc2nc3ccccc3[nH]2)c1	0.1	0.02
Cc1noc(C(=O)Nc2cccc(Cl)c2)c1Cl	0.17	-0.38
CC(=C/C(=O)O)/C=C/c1cccs1	1.2	0.47
Cc1ccc(/C=N/NC(=O)CNC(=O)COc2ccccc2)o1	0.51	1.3
C[C@@H](C(=O)Nc1ccccc1N1CCOCC1)N1C(=O)C2CC=CCC2C1=O (some centres undefined)	0.76	0.8
CCOc1ccc(S(=O)(=O)NCCC(=O)Nc2cccc(C(=O)OC)c2)cc1	2.5	1.2
O=C(O)c1cccc(S(=O)(=O)N2CCCC2)c1	0.04	0.75
Cc1nc(SCc2ccccc2)n[nH]1	1.3	-0.11
CCN1CCN(c2nc3c(c(=O)[nH]c(=O)n3C)n2Cc2ccccc2)CC1	0.93	-0.3
CCN1CCC(O)(C#Cc2ccccc2)CC1	1.2	0.11
CCc1cc[n+](CC(=O)Nc2ccc(Cl)cc2Cl)cc1	0.77	-0.02
O=C(COc1ccc(/C=N/NC(=O)C(=O)N2CCCCCC2)cc1)Nc1ccccc1Cl	0.61	-0.73
CSc1ccccc1NC(=O)CN(C)CC(=O)Nc1cc(C)ccc1C	0.45	0.41
Cc1nc(C#N)c(N/N=C/c2cccc(Cl)c2)o1	0.93	-0.32
COc1cc(/C=N/n2cnnc2)ccc1OC(=O)c1ccco1	1	-0.08

Sorted by count of non-hydrogen atoms (highest first): 6 of the compounds above.
SMILES	KCNQ2 pot	KCNQ2 pot baseline
C#CCCOC(=O)N1C2=NC(C(=O)OC)=C(C(=O)OC)[C@@H]3N(CC=C)c4ccccc4[C@]23C[C@H]1C(=O)OC	0.04	1.3
CCOc1ccc(N(C(=O)c2snc(C(N)=O)c2N)C(C(=O)NC2CCCC2)C(C)C)cc1 (centres undefined)	1.2	-0.75
CCOc1ccc(S(=O)(=O)NCCC(=O)Nc2cccc(C(=O)OC)c2)cc1	2.5	1.2
COc1ccc(CN2CCCC(C(=O)N3CCCCC3)C2)cc1OC (centres undefined)	0.71	0.49
COc1cccc(/C=N/NC(=O)NC2CCCCC2)c1O	0.66	1.3
CN(C)C(N)=NCCC[C@H](N)C(=O)O	1	-0.1
